PrP UTR inh: inhibition of PrP 5' UTR reporter expression. AID 488862. actives 0.35% (n = 340,000). cell-based PrP 5' UTR mRNA reporter, plate reader. inhibition, % (concentration not given with the values);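 active = every replicate at 50% or more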;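 also: 0 = median of the neutral control wells; tested in H4 reporter cells; numbers are from one replicate; inactives centre near -14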
Bead autofluor: counter-screen for toxin protease inhibitors: compound fluorescence. fluorescence intensity (no concentration beside the values). actives 3.1% (n = 360,000). compound autofluorescence counterscreen, microsphere flow cytometry; stronger effect = higher value;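 active = at least 3 SD above the mean of all compounds, about 16000 in these data; inconclusive = too few beads counted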;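 also: 100 nL of 1 mM stock went into each well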
Sa ugtP lethal: growth inhibition of S. aureus ugtP deletion strain; growth inhibition, % (test concentration not listed); S. aureus RN4220 ugtP deletion, OD600 growth, 16 h; some inactives read as strong as hits; actives 0.54% (n = 330,000); AID 1259309;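 active = z-score under -3 and OD600 up to 0.15 on both plates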;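 also: plate controls were untreated wells for no effect and antibiotic for full effect; wells of about 80 µL received 100 nL stock; the first replicate is given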
RN4220 kill: S. aureus RN4220 growth inhibition; inhibition, % (concentration not given with the values); actives 0.33% (n = 330,000); OD600, 16 h;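 active = z-score of -3 or lower and OD600 up to 0.18 on both plates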;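 also: plate controls were untreated cells for no effect and reference antibiotic for full effect; stock transfer was 100 nL into about 80 µL; one replicate is shown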
BJeLR viability: kills HRASV12-expressing BJeLR cells | BJeLR (HRASV12) viability, CellTiter-Glo ATP luminescence, 48 h; reference of the scale not given here | inhibition, % (no concentration beside the values) | actives 0.17% (n = 300,000) | AID 1554;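 active = replicate mean above 50%; inconclusive = above 50% but judged a plate artefact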;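 also: 50 nL library stock added to about 25 µL; numbers are from one replicate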
Mtb hypoxia rep: Mtb hypoxia fluorescent reporter inhibition | M. tuberculosis hypoxia-regulated fluorescent reporter, fluorescence | fluorescence inhibition, % (no concentration beside the values) | actives 0.1% (n = 300,000);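 active = 35 to 45% if threefold the growth effect, above 45% if 1.5-fold the growth effect; inactive = the rest, general growth blockers included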;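 also: wells of about 50 µL received 100 nL stock; 0% = vehicle wells and 100% = reference inhibitor wells; whole bacteria with a GFP reporter of the hypoxia response; strong numbers were not always called active; many hits fall short of the cut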
Mtb hypoxia rep growth: recorded beside Mtb hypoxia rep, whose call it bears; growth inhibition, %; measured here: M. tuberculosis growth (absorbance);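 0% = vehicle and 100% = reference antibiotic; read after six days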
An asterisk follows results filed as active; ? = inconclusive; / = not tested or not shown.

1) COc1ccc(OC)c(NC(=O)CC2SC(=Nc3ccc(F)cc3)N(CCC3=CCCCC3)C2=O)c1 (configuration not stated)
2) CCNC(=O)c1ccc(=O)n(Cc2ccc(Cl)cc2Cl)c1
3) CCN(C(=O)COC(=O)CCc1ccccc1OC)c1c(N)n(Cc2ccccc2)c(=O)[nH]c1=O
4) CCSc1nc2sc3c(c2c(=O)[nH]1)CC(C)(C)OC3
5) CCOC(=O)NC(NCCc1ccccc1)(C(F)(F)F)C(F)(F)F
6) CCN(CC(=O)Nc1ccccc1C(F)(F)F)C(=O)Cc1sc(C)nc1-c1ccc(F)cc1
7) CCCCn1c(N)c(N(CC(C)C)C(=O)CCS(=O)(=O)c2ccc(C)cc2)c(=O)[nH]c1=O
8) CN1CCSc2ccc(C(=O)NCc3ccccc3F)cc21

Compound,1,2,3,4,5,6,7,8
PrP UTR inh,-8.1,-33.7,-19.9,-16.3,7.8,-5.1,-26.0,-21.5
Bead autofluor,2152,4319,6035,3509,12722,?,5525,5988
Sa ugtP lethal,-0.5,0.3,8.5,8.0,-2.7,2.4,0.9,-0.7
RN4220 kill,-3.9,4.6,0.8,22.8,2.0,2.7,2.8,7.8
BJeLR viability,-1.7,-8.1,-14.3,-0.2,7.7,-1.6,4.3,-1.6
Mtb hypoxia rep,/,6.3,3.9,-0.8,1.2,-5.1,-7.3,4.9
Mtb hypoxia rep growth,/,-1.7,4.4,1.0,4.6,-3.0,2.9,9.6

9) CCc1nnc(NC(=O)CN2CCN(S(C)(=O)=O)CC2)s1
10) Fc1ccc(-c2nnc(-c3ccc(Cl)cc3)o2)cc1
11) O=C(Cn1cnc2c(NCc3ccccc3)ncnc21)NCc1ccc2[nH]ccc2c1
12) Cc1sc(Cc2nc(O)cs2)nc1-c1ccccc1
13) COC(=O)C1=C(C)NC(=S)NC1/C=C/c1ccccc1 (configuration not stated)
14) CCn1c(SCC(=O)NCC2CCCO2)nc2cc(S(=O)(=O)N3CCCCC3)ccc21 (configuration not stated)
15) Cc1cccc(N2CCN(C(=O)c3c(-c4ccccc4)noc3C)CC2)c1C
16) CN(CC(=O)Nc1ccc(OC(F)(F)F)cc1)C(=O)Cc1c(Cl)cccc1Cl

Compound,9,10,11,12,13,14,15,16
PrP UTR inh,-0.2,-71.3,2.0,-11.4,-19.8,-9.8,-5.2,-23.1
Bead autofluor,5349,8381,2991,3730,3983,3446,4652,3837
Sa ugtP lethal,0.6,-3.5,3.3,/,8.5,1.6,-0.6,5.8
RN4220 kill,2.8,12.0,1.9,/,-0.5,6.9,0.1,-4.3
BJeLR viability,-6.4,1.6,/,-1.9,2.4,-0.4,38.0,0.1
Mtb hypoxia rep,11.5,15.7,-6.4,/,13.7,5.1,7.7,-5.0
Mtb hypoxia rep growth,2.4,6.4,-4.0,/,15.5,9.4,4.4,5.6

Arranged by heavy-atom count (high to low): part of the list above.
11) O=C(Cn1cnc2c(NCc3ccccc3)ncnc21)NCc1ccc2[nH]ccc2c1
16) CN(CC(=O)Nc1ccc(OC(F)(F)F)cc1)C(=O)Cc1c(Cl)cccc1Cl
10) Fc1ccc(-c2nnc(-c3ccc(Cl)cc3)o2)cc1

Compound,11,16,10
PrP UTR inh,2.0,-23.1,-71.3
Bead autofluor,2991,3837,8381
Sa ugtP lethal,3.3,5.8,-3.5
RN4220 kill,1.9,-4.3,12.0
BJeLR viability,/,0.1,1.6
Mtb hypoxia rep,-6.4,-5.0,15.7
Mtb hypoxia rep growth,-4.0,5.6,6.4

Next structures:
17) CC(C)N(Cc1cnn(C)c1)Cc1nc(COc2ccccc2)no1
18) COc1cc(C(=O)OCC(=O)NCC2CCCO2)cc(OC)c1OC (configuration not stated)
19) C1=C(CCNCC2CCCCC2)CCCC1
20) CCCCCC(=O)Nc1cc(S(=O)(=O)N2CCOCC2)ccc1Oc1ccc(OCC)cc1
21) COc1ccccc1NC(=O)NNC(=O)c1ccc(-c2ccccc2)cc1
22) O=C(CSc1nnnn1-c1cccc(C(=O)O)c1)NC(c1ccccc1)c1ccccc1
23) CC(NC(=O)c1cc(COc2c(F)cccc2F)on1)c1cnn(-c2ccccc2)c1 (configuration not stated)
24) CC(=NNC(=O)c1c(Cl)cnn1C)c1ccc(NC(=O)c2ccc(Br)o2)cc1

Compound,17,18,19,20,21,22,23,24
PrP UTR inh,-1.4,-9.7,-8.4,-14.0,-1.3,6.2,-47.9,/
Bead autofluor,3743,8535,11248,4989,6130,4566,3157,/
Sa ugtP lethal,-2.5,3.1,0.6,3.8,4.8,-1.3,/,12.2
RN4220 kill,5.3,2.9,1.5,-0.7,-1.8,3.6,/,6.4
BJeLR viability,-7.7,/,2.3,-2.8,-4.1,3.8,3.4,/
Mtb hypoxia rep,8.2,8.6,2.1,-1.9,-6.1,1.0,/,-5.3
Mtb hypoxia rep growth,6.8,0.1,2.4,1.0,10.8,0.5,/,2.9

25) C=CCOC(=O)C1C(C(=O)O)C2(Cl)C(Cl)=C(Cl)C1(Cl)C2(Cl)Cl (configuration not stated)
26) CCc1ccc(/C=N/NC(=O)c2ccc(OC3CCCC3)cc2)s1
27) CCn1nc(NS(=O)(=O)c2ccc(NC(C)=O)cc2)c2cc3cccc(C)c3nc21
28) Cc1ccc(CSc2nc3c(c(SCC(=O)O)n2)CCCC3)cc1
29) N#Cc1nc(N2CCCC2)nc(N2CCCC2)n1
30) Cc1cc(C)n(-c2ccc3cccc(NS(C)(=O)=O)c3n2)n1
31) C=CCn1c(Br)nc2c1c(=O)[nH]c(=O)n2C
32) Cc1nn(Cc2ccccc2)c(Cl)c1C(=O)OC1CCOC1=O (configuration not stated)

Compound,25,26,27,28,29,30,31,32
PrP UTR inh,-4.0,-13.9,-28.0,3.7,-6.7,32.4,-1.3,-19.6
Bead autofluor,3554,4304,5199,3670,4691,3084,3673,4382
Sa ugtP lethal,17.9,/,-17.0,16.3,1.6,4.6,0.6,5.1
RN4220 kill,13.9,/,8.2,13.4,-0.1,6.6,2.5,6.1
BJeLR viability,/,-3.1,-10.0,-0.7,21.1,-4.1,8.0,1.9
Mtb hypoxia rep,9.4,/,-5.1,15.5,11.0,7.8,9.5,/
Mtb hypoxia rep growth,12.6,/,-10.6,7.8,9.3,8.9,7.8,/

33) CSc1nnc(NC(=O)C23CC4CC(CC(C4)C2)C3)s1
34) CN(C)CCNc1oc(-c2cccc(Cl)c2)nc1C#N
35) COC(c1ccccc1)c1nnc(CCC(=O)NCCc2ccc(Cl)cc2)o1 (configuration not stated)
36) O=S(=O)(NCCc1csc(-c2cccnc2)n1)c1cccc(F)c1
37) CC(=O)c1ccc(NC(=O)c2ccc(N3C(=O)c4cccnc4C3=O)cc2)cc1
38) Cc1ccc2[nH]c(=O)c(C(c3nnnn3C3CCCC3)N(Cc3cccnc3)Cc3ccco3)cc2c1 (configuration not stated)
39) Cc1occc1-c1nnc(SCC(=O)Nc2ccccc2)n1Cc1ccccc1
40) O=C(NC(=O)c1cc(OCC(F)(F)F)ccc1OCC(F)(F)F)Nc1ccccc1

Compound,33,34,35,36,37,38,39,40
PrP UTR inh,-43.0,-22.1,-13.0,-16.5,-18.9,-12.4,-26.7,-9.1
Bead autofluor,5705,20990*,3429,5057,5218,2462,10487,6104
Sa ugtP lethal,-7.7,-5.5,3.5,9.2,5.1,2.1,4.3,-19.2
RN4220 kill,5.9,7.1,3.0,4.4,0.6,2.1,8.4,-1.8
BJeLR viability,-7.5,2.7,7.4,-2.8,5.4,-9.8,-11.6,-3.4
Mtb hypoxia rep,-2.5,6.3,-4.3,4.9,4.2,/,1.4,-2.2
Mtb hypoxia rep growth,-2.2,4.5,6.0,14.3,13.3,/,-1.1,-2.6

41) Nc1ncccc1C(=O)OCC(=O)N1CCN(S(=O)(=O)c2ccc(Cl)cc2)CC1
42) O=C(NNC(=S)Nc1ccccc1)c1ccc2ncccc2c1
43) O=C(NC(=S)NCC1CCCO1)c1ccc([N+](=O)[O-])cc1 (configuration not stated)
44) O=C(NCCc1ccccc1)c1ccc(OCCOc2ccccc2)cc1
45) CCc1cc2c3c([nH]c2cc1S(=O)(=O)NCCCOC)CC(C)(C)CC3=O
46) CCOc1ccccc1-n1c(SCC(N)=O)nnc1-c1ccccc1
47) Cc1ccc(S(=O)(=O)N2CCOCC2)cc1NC(=O)COC(=O)c1cnccn1
48) O=C(COc1ccccc1)NCCSCc1ccccc1Cl

Compound,41,42,43,44,45,46,47,48
PrP UTR inh,-1.8,-24.0,-12.1,-6.6,-9.6,-5.7,-8.6,-48.3
Bead autofluor,3737,4149,2236,11409,3131,16659*,4109,4385
Sa ugtP lethal,-0.2,2.5,-10.3,3.8,-0.3,0.0,3.5,-11.1
RN4220 kill,0.0,6.6,-1.4,3.2,1.6,2.6,3.5,-1.4
BJeLR viability,/,-1.4,-6.0,-19.0,11.2,11.0,/,2.8
Mtb hypoxia rep,4.3,3.9,10.3,3.4,3.3,-0.2,11.2,4.9
Mtb hypoxia rep growth,-0.3,-3.1,0.1,5.0,1.1,6.3,-0.7,23.8

49) COc1cccc(CNC(=O)C2CCCN(S(=O)(=O)c3c(C)n[nH]c3C)C2)c1 (configuration not stated)
50) COc1ccccc1NS(=O)(=O)c1cc(NC(=O)c2ccccc2F)ccc1N1CCOCC1
51) O=C(CSc1ccccc1)NCc1ccc(F)cc1
52) CCOc1ccc(S(=O)(=O)NC2CCCCCC2)cc1
53) CC(C)Oc1ccc(C(=O)Nc2ncn[nH]2)cc1
54) CCNC(=S)Nc1ccc(-c2nc3ccccc3[nH]2)cc1
55) O=C(N/N=C/c1sc(N2CCOCC2)nc1-c1ccccc1)c1ccc(O)cc1
56) CCCN(CC(=O)Nc1ccccc1C)C(=O)c1ccc(N2CCCC(C)C2)c([N+](=O)[O-])c1 (configuration not stated)

Compound,49,50,51,52,53,54,55,56
PrP UTR inh,-24.0,-4.4,-29.8,-10.4,-5.2,-87.4,-30.1,-17.8
Bead autofluor,3315,4777,2155,3331,4023,4289,2365,6585
Sa ugtP lethal,8.9,3.7,-6.9,6.2,9.8,9.9,/,-3.3
RN4220 kill,5.7,11.1,3.5,4.1,3.0,0.0,/,1.3
BJeLR viability,6.1,-9.4,-5.6,1.7,1.7,-3.6,-6.0,/
Mtb hypoxia rep,16.3,7.5,15.2,17.4,14.8,2.3,/,-10.9
Mtb hypoxia rep growth,11.8,0.2,0.9,12.0,7.0,10.7,/,-5.9

57) CC(C)CN(C(=O)COC(=O)CNC(=O)c1ccccc1)c1c(N)n(Cc2ccccc2)c(=O)[nH]c1=O
58) COc1cccc(-c2ccc(NC(=O)C3CCCN(Cc4ccco4)C3)cc2)c1 (configuration not stated)
59) O=C(CNC(=O)/C(=C\c1ccccc1)NC(=O)c1ccc(Br)cc1)OCc1ccccc1
60) C(=NN(c1ccccc1)c1ccccc1)c1ccccn1
61) Brc1ccccc1OCCCN1CCCCCC1
62) O=C1N(c2ccccc2)CCN1c1ccccc1
63) CC(C)Cn1c(N)c(C(=O)COC(=O)/C=C/c2cccs2)c(=O)n(C)c1=O
64) Cc1ccccc1N/C=C/C(=C(C#N)C#N)N(C)C

Compound,57,58,59,60,61,62,63,64
PrP UTR inh,2.7,-25.1,-6.2,/,-0.8,-80.8,-19.6,-6.7
Bead autofluor,6562,5342,3064,/,3035,3789,5717,9409
Sa ugtP lethal,-2.6,-4.4,/,3.8,-2.7,13.5,14.0,-4.2
RN4220 kill,-1.5,-7.8,/,6.7,3.8,2.4,1.6,9.5
BJeLR viability,-1.1,-18.4,4.3,/,-1.6,12.3,-3.5,-8.2
Mtb hypoxia rep,0.2,4.1,/,-18.1,20.3,5.3,-0.9,12.5
Mtb hypoxia rep growth,1.5,5.4,/,1.1,11.5,-0.5,2.6,7.6

65) CCCCn1cnc2c1c(=O)[nH]c(=O)n2CCCC
66) O=C(NCc1ccc(F)cc1)C(=O)c1cn(CC(=O)N2CCCC2)c2ccccc12
67) CC(CNC(=O)c1cc(COc2ccc3ncccc3c2)on1)c1ccccc1 (configuration not stated)
68) Cc1cccc(OCCCN2C(=O)C(=O)c3cc(C)ccc32)c1

Compound,65,66,67,68
PrP UTR inh,0.1,-13.7,-21.4,-17.9
Bead autofluor,4411,6050,6570,3863
Sa ugtP lethal,4.9,4.4,3.6,38.1
RN4220 kill,5.4,-0.5,6.1,-4.6
BJeLR viability,27.4,-22.7,-0.8,31.5
Mtb hypoxia rep,15.1,-1.2,18.8,-1.8
Mtb hypoxia rep growth,12.2,5.8,10.2,5.2
